RGS16-Gao: modulators of RGS16 binding to Galphao, primary screen, biochemical, human proteins, multiplexed bead flow cytometry. Regulator of G-protein signaling 16 (Homo sapiens) + Guanine nucleotide-binding protein …. bead-based flow cytometry RGS16-Galphao binding, fluorescence; actives lie on both sides. binding response (% of control), % at 10 µM. hit rate 0.38% among 220,000. AID 1441, 2008;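 active = below 25% or above 175%, edge rows of some plates excepted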;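 note: Galphao activated by GDP with aluminum fluoride before binding; 100% = wells without compound and 0% = beads without RGS; some results beyond the cut were filed as inactive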
Target sequence (O15492 whole entry, looked up): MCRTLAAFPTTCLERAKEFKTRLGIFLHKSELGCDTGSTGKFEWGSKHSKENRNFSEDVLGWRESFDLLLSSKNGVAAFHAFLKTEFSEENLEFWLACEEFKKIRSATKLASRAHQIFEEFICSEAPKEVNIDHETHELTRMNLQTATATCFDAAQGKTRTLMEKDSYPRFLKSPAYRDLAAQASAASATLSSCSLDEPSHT
Target sequence (P09471 whole entry, looked up): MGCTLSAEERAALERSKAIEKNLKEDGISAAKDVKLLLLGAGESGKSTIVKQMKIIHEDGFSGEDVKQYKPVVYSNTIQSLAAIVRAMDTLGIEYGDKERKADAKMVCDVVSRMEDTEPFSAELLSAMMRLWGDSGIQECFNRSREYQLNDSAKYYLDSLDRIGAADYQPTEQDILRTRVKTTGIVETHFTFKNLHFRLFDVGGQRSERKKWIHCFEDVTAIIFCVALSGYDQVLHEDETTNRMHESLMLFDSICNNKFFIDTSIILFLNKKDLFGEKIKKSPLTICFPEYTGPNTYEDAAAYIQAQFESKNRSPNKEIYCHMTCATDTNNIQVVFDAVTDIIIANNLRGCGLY
PKD1 inh: inhibitors of human PKD1 kinase, biochemical, fluorescence polarization | Serine/threonine-protein kinase D1 (Homo sapiens), Q15139 | PKD1 kinase fluorescence polarization assay | inhibition, %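 (about 10 µM by stock and volumes)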 | hit rate 0.056% among 200,000 | AID 797, 2007;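 active = inhibition of 50% or more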;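 note: controls were vehicle for no effect and a reference inhibitor for full effect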
Insulin prom inh: inhibitors of insulin promoter-driven GFP, primary screen, imaging, TRM-6 cells (human fetal islet line), eGFP reporter, cell count | reporter expression induced with tamoxifen | inhibition, % at 2 µM | hit rate 0.9% among 130,000 | AID 1273, 2008;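 active = inhibition above the mean plus 3 SD, with well images judged a real hit on visual review, cut at about 60% in these data, passing the limit was not always enough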
HSV augment: enhancers of HSV replication in host cells, fold increase, host cell viability; HSV replication augmentation in cells; maximum fold increase; hit rate 0.005% among 220,000;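 active = peak rise of 1.5-fold or more in the series; tested in PC3 cells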;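 note: first round at 10 µM; read as green reporter fluorescence; hits show the peak of a series up to 25 µM; 1 = signal of infected wells without compound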
GALR2 agonist: GALR2 receptor agonists, primary screen, cell-based. activation, %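 (tested at 5 µM)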. GALR2-expressing cells, agonist activation read-out. Galanin receptor type 2 (Homo sapiens), O43603. hit rate 0.48% among 140,000;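 active = above mean plus 3 SD of all compounds, about 5% in these data, not always enough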;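 note: 0% = vehicle buffer wells and 100% = reference agonist at full effect; tested in CHO reporter cells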
Target sequence (O43603 whole entry, looked up): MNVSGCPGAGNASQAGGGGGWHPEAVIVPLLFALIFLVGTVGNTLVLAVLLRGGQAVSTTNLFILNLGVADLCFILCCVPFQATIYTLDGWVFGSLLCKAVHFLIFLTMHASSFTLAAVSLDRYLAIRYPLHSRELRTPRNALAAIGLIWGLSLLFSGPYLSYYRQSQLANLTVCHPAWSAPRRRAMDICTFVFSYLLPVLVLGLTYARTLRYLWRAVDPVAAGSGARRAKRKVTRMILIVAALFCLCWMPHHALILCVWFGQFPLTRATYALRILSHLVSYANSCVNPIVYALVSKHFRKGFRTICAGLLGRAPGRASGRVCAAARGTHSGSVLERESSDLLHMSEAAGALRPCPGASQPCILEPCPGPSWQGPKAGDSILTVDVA
Insulin prom inh cell count: second read-out of Insulin prom inh, no call of its own (marks repeat the call); normalized cell count, %; measured here: cell count, toxicity; reference of the scale not given here;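 cells exposed to compound for 48 h; stained nuclei by imaging scaled within each plate; lower means fewer cells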
HSV augment primary fold: second read-out of HSV augment, no call of its own (marks repeat the call); fold increase; compound at 10 µM; measured here: primary screen fold increase 10 uM; tested in PC3 cells;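 GFP signal in the first replicate; 1 = infected wells without compound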
The depositor's hits bear a star; i = inactive; nt = no result given.

SMILES	RGS16-Gao	PKD1 inh	Insulin prom inh	Insulin prom inh cell count	HSV augment	HSV augment primary fold	GALR2 agonist
COC(=O)c1ccc(-c2sc3nc(N4CCOCC4)c4c(c3c2N)CCCC4)o1	117	1	4	91	i	1.1	1.4
COc1ccc([N+](=O)[O-])cc1NC(=O)Cc1c(Cl)cccc1Cl	98	4	nt	nt	i	0.82	0.7
O=C(c1ccc(Cn2c(=S)[nH]c3ccccc3c2=O)cc1)N1CCN(c2ccccn2)CC1	101	-1	37	80	i	0.99	nt
CC(C)OCCCNC(=O)Cn1nc(-c2ccccc2)ccc1=O	97	-4	nt	nt	i	0.96	0.1
CCCCOC(=O)c1ccc(S(N)(=O)=O)o1	110	-1	-11	80	i	0.99	-0.9
O=C(Oc1ccc(Cl)c2cccnc12)c1ccco1	102	-6	45	53	i	0.87	-2.4
Cc1ccc(SCc2[nH]nc3c2C2(C(=O)Nc4ccc(F)cc42)C(C#N)=C(N)O3)cc1 (stereo unspecified)	100	-1	44	125	i	0.9	-3.9
Cc1cc(C(F)(F)F)nn1CC(=O)Nc1cccnc1	98	3	nt	nt	nt	nt	-0.5
O=C(Cc1coc2cc3c(cc12)CCC3)NC1CCCCCCC1	101	-3	-77	102	i	1	0.1
CCSc1nnc(NC(=O)c2ccccc2)s1	99	-6	-21	117	i	0.93	-1.1
Cc1ccc(OS(=O)(=O)c2cn(C)c(=O)n(C)c2=O)cc1C	100	-4	nt	nt	i	0.94	nt
CC(=O)Nc1cccc(NC(=S)Nc2ccc(F)c(Cl)c2)c1	109	1	nt	nt	i	0.93	nt
O=C(C[n+]1cc(-c2ccc(Cl)cc2)n2c1CCCCC2)c1ccccc1	104	nt	nt	nt	i	0.94	nt
COc1ccc(/C=N/NC(=O)c2cccc([N+](=O)[O-])c2)cc1O	104	1	nt	nt	i	0.88	nt
COc1ccc(C(=O)NCc2nnc(SCC(=O)N3CCCc4ccccc43)o2)cc1OC	102	7	nt	nt	i	0.98	nt

Pulled by compound from the list above, four records:
SMILES	RGS16-Gao	PKD1 inh	Insulin prom inh	Insulin prom inh cell count	HSV augment	HSV augment primary fold	GALR2 agonist
COc1ccc(/C=N/NC(=O)c2cccc([N+](=O)[O-])c2)cc1O	104	1	nt	nt	i	0.88	nt
CC(=O)Nc1cccc(NC(=S)Nc2ccc(F)c(Cl)c2)c1	109	1	nt	nt	i	0.93	nt
Cc1ccc(SCc2[nH]nc3c2C2(C(=O)Nc4ccc(F)cc42)C(C#N)=C(N)O3)cc1 (stereo unspecified)	100	-1	44	125	i	0.9	-3.9
CCCCOC(=O)c1ccc(S(N)(=O)=O)o1	110	-1	-11	80	i	0.99	-0.9

(further entries)
SMILES	RGS16-Gao	PKD1 inh	Insulin prom inh	Insulin prom inh cell count	HSV augment	HSV augment primary fold	GALR2 agonist
Cc1cc(=O)oc(C)c1C(=O)Nc1cccc2ccccc12	84	-6	-4	112	i	0.98	-0.1
COc1ccc(CCNC(=O)C(C)OC(=O)c2ccco2)cc1OC (stereo unspecified)	114	-6	-17	166	i	0.95	-1.2
CCn1c(SCC(=O)NCC2CCCO2)nnc1-c1ccccc1 (stereo unspecified)	102	10	-28	79	i	0.97	-2.9
COc1cc2ncnc(NCc3ccc(Cl)cc3)c2cc1OC	92	-6	nt	nt	i	0.97	nt
Cn1c(CSCc2ccccc2Cl)n[nH]c1=S	27	-3	nt	nt	i	0.94	nt
CC(NC(=O)c1ccccc1F)c1nnc(SCc2nc3ccccc3c(=O)[nH]2)n1C (stereo unspecified)	103	-4	nt	nt	i	1	nt
CC(=O)c1ccc(NC(=O)Nc2ccccc2)cc1	102	1	0	111	i	0.95	-1.3
Cc1ccccc1C(=O)NCC(=O)O	92	-6	-12	80	i	0.96	nt
Cc1ccc(C)c(S(=O)(=O)N2CCNCC2)c1	101	-4	nt	nt	i	0.9	nt
Cc1cc(=O)[nH]c(N/N=C/c2cc(C)n(CC(F)(F)F)c2C)n1	98	nt	nt	nt	i	0.79	nt
CCc1ccc(S(=O)(=O)NCc2cn3ccsc3n2)s1	106	-9	nt	nt	i	0.67	-0.2
O=C1CC(C(F)(F)C(F)(F)C(F)(F)C(F)F)=Nc2ccccc2N1	101	7	-55	137	i	0.91	0.4
CNC(=S)NC1CC2CCCC(C1)N2Cc1ccc(C)cc1 (stereo unspecified)	103	-5	nt	nt	i	0.98	nt
CCCN(CCC)CCNC(=O)C1CCN(Cc2nc(-c3ccc(Cl)cc3)oc2C)CC1	113	14	nt	nt	i	0.92	-1.9
Cc1n[nH]c(=O)n1-c1cccc(C(F)(F)F)c1	93	-3	-4	86	i	1.1	-0.1
CCOC(=O)c1ccccc1-c1csc(NS(=O)(=O)c2ccc(Cl)cc2)n1	103	-8	-72	83	i	0.91	0.1
CCC(=O)Nc1cccc(C(=O)c2ccccc2)c1	88	-8	54	88	i	0.91	0.0
NC(=O)CCC(NC(=O)c1ccc(Cl)cc1)C(=O)O (stereo unspecified)	106	2	nt	nt	i	0.93	nt
NS(=O)(=O)c1ccc(CNS(=O)(=O)c2cc(Cl)ccc2Cl)cc1	104	nt	nt	nt	i	0.85	nt
O=C(N=Nc1c(O)[nH]c2ccc(Br)cc12)c1cc(-c2cccs2)nc2ccccc12	104	5	nt	nt	i	0.53	nt
COc1ccc(NC(=O)c2cc(-c3cccnc3)nc3c(C)c(C)ccc23)c(OC)c1	94	1	nt	nt	i	0.87	2.8
COc1ccc(OC)c(N(CC(=O)Nc2cccnc2)S(=O)(=O)c2ccc(C)cc2)c1	108	-4	-14	204	i	0.59	-0.9
O=C1CC(c2ccccc2)CC(O)=C1C=NC1CCCCC1 (stereo unspecified)	104	-3	-10	84	i	0.96	-1.2
O=C(Nc1ccc([N+](=O)[O-])cn1)c1ccc2c(c1)OCO2	98	4	nt	nt	i	0.85	nt
NC(=O)c1ccc(C(F)(F)F)n(Cc2c(Cl)cccc2Cl)c1=O	100	-1	nt	nt	i	1.1	-0.2
Cc1sc2nc(C3CCCCC3)nc(SCC(=O)N3CC(=O)Nc4ccccc43)c2c1C	110	-1	-8	132	i	0.73	-0.4
COCC(=O)NC(C)c1nc2ccccc2[nH]1 (stereo unspecified)	102	2	nt	nt	i	0.94	-1.4
C/C(=N\NC(=O)CNc1cccc(C(F)(F)F)c1)c1cccc(Br)c1	98	-2	nt	nt	i	0.86	0.9
COc1ccc(/C=N/NC(=O)COc2ccc3ccccc3c2)c(C(=O)O)c1OC	90	-4	4	87	i	1	-2.0
O=C(COC(=O)c1cccnc1Cl)Nc1nc(-c2ccccc2)cs1	102	1	nt	nt	i	1	-1.0
COCC1CCN(Cc2nc(COc3ccccc3)no2)C1 (stereo unspecified)	94	-4	nt	nt	i	0.78	nt
Cc1ccccc1N/C(=N/S(=O)(=O)c1ccccc1)c1ccc(F)cc1	101	nt	nt	nt	i	1.2	nt
Cc1ccc2cc(C(c3nnnn3C3CCCC3)N(Cc3ccco3)Cc3cccs3)c(=O)[nH]c2c1 (stereo unspecified)	100	-2	-60	199	i	0.72	-0.9
CC(/C=N/NC(=O)c1cc(C(C)(C)C)[nH]n1)=C\c1ccccc1	102	-3	-12	114	i	0.7	-2.7
CCOc1ccc(C(=O)N/N=C/c2cc(Cl)ccc2[N+](=O)[O-])cc1	90	-7	-6	111	i	0.95	-0.4
CN1CCN(C(=O)c2cc3nc(-c4ccccc4)cc(C(F)(F)F)n3n2)CC1	173	6	0	128	i	0.83	-1.7
O=C(Nc1n[nH]c(C(F)(F)F)n1)c1cccs1	103	nt	nt	nt	i	0.98	nt
c1ccc(C2=Nn3c(Cn4nnc5ccccc54)nnc3SC2)cc1	105	nt	nt	nt	i	1	nt
C#CCn1c(=NC(=O)CSC(C)=O)sc2cc(F)ccc21	103	-1	nt	nt	i	0.87	nt
CCn1c(CSCc2ccccc2)n[nH]c1=S	98	-8	12	116	i	1	nt
Cc1ccc(SCc2[nH]nc3c2C2(C(=O)Nc4ccc([N+](=O)[O-])cc42)C(C#N)=C(N)O3)cc1 (stereo unspecified)	97	3	-15	101	i	0.69	-2.2
CN(C)C(CNC(=S)Nc1ccc(F)cc1)c1cccnc1 (stereo unspecified)	101	-4	nt	nt	i	1.1	nt
CN(C)CCCNc1nc(-c2ccccc2)nc2ccccc12	101	nt	nt	nt	i	0.95	nt
CCN(CC)S(=O)(=O)c1cccc(NC(=O)COC(=O)C2CC3C=CC2C3)c1 (stereo unspecified)	107	-1	nt	nt	i	0.99	nt
Cc1cccn2cc(CNC(=O)c3ccc(Br)o3)nc12	102	-1	nt	nt	i	1	nt
CCCC(=O)Nc1nc(-c2ccc(OC)cc2)cs1	104	-10	50	168	i	1	-1.8
O=C(CSc1ccc(Cl)cc1)NCC1CCCO1 (stereo unspecified)	100	-3	-19	82	i	0.93	-0.3
CC1Cc2ccccc2N1C(=O)CN1C(=O)COc2ccccc21 (stereo unspecified)	99	-5	40	101	i	0.94	-0.9
CCOC(=O)c1c(N)n(CCOC(=O)c2cccs2)c2nc3ccccc3nc12	103	-5	nt	nt	nt	nt	0.4
Cc1nc2cc(N)ccc2n1C1CCCCC1	114	-2	nt	nt	i	0.96	nt
COC(=O)c1ccc(COC(=O)C(CCS(C)(=O)=O)N2C(=O)c3ccccc3C2=O)cc1 (stereo unspecified)	105	2	nt	nt	i	1.1	-1.7
COc1ccc2nccnc2c1[N+](=O)[O-]	99	nt	nt	nt	i	1	nt
CCCN1C(=S)SC(C)(C)C1/[N+]([O-])=C/c1ccc(S(=O)(=O)NC)cc1 (stereo unspecified)	100	nt	nt	nt	i	0.95	nt
O=C(COc1ccc(Cl)cc1)N(Cc1ccco1)C1CCS(=O)(=O)C1 (stereo unspecified)	99	nt	nt	nt	i	1	nt
CCOC(=O)c1cc(NC(=O)COC)ccc1O	98	-1	nt	nt	i	1.1	nt
CC12CCC(C(=O)NNc3ccccc3)(C(=O)C1=O)C2(C)C (stereo unspecified)	95	nt	nt	nt	i	0.99	nt
Cn1c(=O)c2c(nc(Cc3ccccc3)n2C)n(C)c1=O	103	nt	nt	nt	i	0.93	nt
CCN(C(=O)c1ccc(NC(C)=O)cc1)c1ccccc1	-20*	-1	nt	nt	i	0.87	-1.3
COc1cc(OC)cc(C(=O)N2CCCc3ccccc32)c1	101	4	nt	nt	i	0.95	-2.6
COc1ccc(OCC(=O)Nc2ccc3nc(C)sc3c2)cc1	104	-4	-43	108	i	1	nt
Additional records follow:
SMILES	RGS16-Gao	PKD1 inh	Insulin prom inh	Insulin prom inh cell count	HSV augment	HSV augment primary fold	GALR2 agonist
CSc1nnnn1-c1ccc(C(=O)O)cc1	96	-8	-41	90	i	0.92	-2.9
O=C(O)CC(C(=O)Nc1ccc(F)cc1)C1CCCO1 (stereo unspecified)	85	nt	nt	nt	i	0.88	nt
CC(C)(C)NC(=O)COC(=O)c1cncc(Br)c1	99	5	2	86	i	0.9	-1.1
Cc1cc(Cl)nc(Cl)c1C(=O)NC(=O)NCCC(C)C	111	13	50	102	i	0.99	nt
Cc1ccccc1N(CC(=O)NC1CCCC1)C(=O)C1(C)CC(=O)N=C2C=CC=CN21 (stereo unspecified)	101	-3	-31	126	i	1.1	-2.9
Cc1cc(C(=O)Nc2ccc(S(=O)(=O)N3CCCC3)cc2)cs1	104	-3	15	131	i	1	-1.7
CCCNC(=O)N[C@@H](CCSC)C(=O)OC	103	-2	14	109	i	0.84	-1.2
S=C(NCc1ccncc1)Nc1ccc(Cl)c(Cl)c1	101	2	-6	142	i	0.86	-0.7
O=C(O)CSc1ncccc1C(=O)O	91	-6	-23	99	i	1.1	-0.4
NC(=O)c1nn(-c2ccccc2)nc1NC(=O)Cn1nnc(-c2ccccc2)n1	101	-1	17	104	i	0.91	5.2*
CCCCNC(=O)c1cc(-c2ccc(F)cc2)on1	108	-3	36	98	i	1	-2.2
Cc1nc2ccc(S(=O)(=O)NCC(=O)N3CCc4ccccc4C3)cc2s1	95	0	-244	75	i	0.79	-3.5
COCCCNC(=O)c1c(N)n(/N=C/c2ccccn2)c2nc3ccccc3nc12	96	0	nt	nt	nt	nt	0.3
CCC(C)NC(=O)c1cnc2n(c1=O)CCS2 (stereo unspecified)	127	-4	29	70	i	0.94	-1.1

Of the compounds above, two contain a cyano group:
SMILES	RGS16-Gao	PKD1 inh	Insulin prom inh	Insulin prom inh cell count	HSV augment	HSV augment primary fold	GALR2 agonist
Cc1ccc(SCc2[nH]nc3c2C2(C(=O)Nc4ccc(F)cc42)C(C#N)=C(N)O3)cc1 (stereo unspecified)	100	-1	44	125	i	0.9	-3.9
Cc1ccc(SCc2[nH]nc3c2C2(C(=O)Nc4ccc([N+](=O)[O-])cc42)C(C#N)=C(N)O3)cc1 (stereo unspecified)	97	3	-15	101	i	0.69	-2.2
